High-throughput results (PubChem BioAssay)
LANA-H2A inh = blocks KSHV LANA binding to histone H2A/H2B; Q9QR71; cell-free LANA-H2A/H2B peptide, fluorescence polarization; inhibition, % (no concentration beside the values); 0.6% of 320,000 active; AID 2629; in the data active = inhibition mostly above about 10%, no sharp cut-off; inactive = mostly below about 6.7%;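 note: stock transfer was 7.5 nL into about 10 µL; 0% = median of vehicle wells and 100% = median of positive control wells; one replicate is shown; the record names a cut of 25% in any replicate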
B2AR ag = human beta-2 adrenergic receptor agonism by FAP. response, % (no concentration beside the values). P07550. 0.43% of 340,000 active. Am2.2-beta2AR cells, FAP receptor internalization, flow cytometry; reference of the scale not given here;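 active = response above a set limit, near 3 SD of response in nonfluorescent compounds, cut at about 42% in these data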;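 note: stock transfer was 100 nL into about 11 µL; a reference agonist was the positive control; negative values mostly stem from fluorescent compounds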
Target sequence (P07550 whole entry, looked up): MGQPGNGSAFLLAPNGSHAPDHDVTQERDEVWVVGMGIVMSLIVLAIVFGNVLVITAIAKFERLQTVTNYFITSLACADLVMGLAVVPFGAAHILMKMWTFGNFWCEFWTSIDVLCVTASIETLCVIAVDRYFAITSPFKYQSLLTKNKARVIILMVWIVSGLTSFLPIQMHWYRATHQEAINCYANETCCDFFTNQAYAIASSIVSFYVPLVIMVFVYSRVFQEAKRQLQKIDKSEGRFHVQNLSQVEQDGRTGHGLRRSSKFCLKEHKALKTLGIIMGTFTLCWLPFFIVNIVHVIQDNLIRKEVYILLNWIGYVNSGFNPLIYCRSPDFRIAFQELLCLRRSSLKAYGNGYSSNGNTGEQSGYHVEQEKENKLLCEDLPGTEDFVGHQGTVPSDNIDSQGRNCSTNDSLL
Calb FLC = affects C. albicans growth with fluconazole | C. albicans CaCi-2 (fluconazole-resistant clinical isolate) + fluconazole, Alamar Blue growth, 48 h | growth inhibition, % (no concentration beside the values) | 0.57% of 300,000 active;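 active = most replicates above 75%; inconclusive = exactly half above 75%; inactive = most below 75%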;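 note: all wells also contain fluconazole at 8 µg/ml as a sub-toxic cotreatment; 0% = median of DMSO wells and 100% = median of geldanamycin control wells; wells of about 8 µL received 7.5 nL stock; the first replicate is given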
Vif TR-FRET = inhibitors of Vif binding to APOBEC3G peptide, primary screen, biochemical, TR-FRET, GST-Vif 1-94, biotin-A3G peptide, dose response retest (AID 1117319). 0.57% of 260,000 active. TR-FRET GST-Vif / biotin-A3G peptide binding; higher % means a stronger effect; test concentration not given here; strong numbers were not always called active. one-dose inhibition, %; IC50 in µM for titrated hits;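 active = above the screen mean plus three standard deviations and confirmed in dose response; inconclusive = results disagree or hit not tested in dose response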;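 note: Vif residues 1-94 fused to GST binding biotinylated APOBEC3G peptide 110-148; 0% = full assay without inhibitor and 100% = GST in place of GST-Vif; retest series ran down from 100 µM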
ALR inh = human ALR oxidase inhibition via reduced H2O2; P55789; purified ALR, DTT oxidation, H2O2 HRP-luminol luminescence; inhibition, % (test concentration not listed); 3.8% of 290,000 active; AID 485317;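 active = mean and each replicate at 75% or more; inconclusive = only one of the two met; inactive = neither met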;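 note: stock transfer was 7.5 nL into about 7.5 µL; 0% = neutral wells and 100% = wells with inactivated enzyme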
Target sequence (P55789 whole entry, looked up): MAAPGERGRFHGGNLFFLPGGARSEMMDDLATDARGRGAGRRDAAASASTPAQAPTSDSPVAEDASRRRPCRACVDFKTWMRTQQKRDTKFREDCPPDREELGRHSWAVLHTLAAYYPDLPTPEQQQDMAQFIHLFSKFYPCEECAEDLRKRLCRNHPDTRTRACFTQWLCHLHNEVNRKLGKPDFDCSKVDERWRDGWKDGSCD
RanGTP-Impb inh = inhibitors of RanGTP-importin-beta interaction, primary screen, biochemical, FRET, CFP-Ran, YFP-importin-beta, homogeneous. cell-free CFP-Ran/YFP-importin-beta FRET ratio. inhibition, % (no concentration beside the values). 1.1% of 300,000 active. AID 2216;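 active = most replicates above 15%; inconclusive = exactly half above 15%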;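 note: 0% = DMSO wells and 100% = Ran loaded with GDP instead of GTP; wells of about 40 µL received 100 nL stock; the first replicate is given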
HNF4A DNA FP = change in binding of human HNF4 alpha to DNA; 0.3% of 360,000 active; activity change, % at 10 µM; HNF4a-FITC DNA binding, fluorescence polarization, 1 h; in the data active = activity change above about 30%, passing the limit was not always enough;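 note: controls were the assay level and a saturating level of protein; the project sought stronger binding though the title names inhibitors; some compounds called inactive have numbers as strong as hits; positive values seem to mean higher polarization but the record does not say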
Target sequence (P41235 whole entry, looked up): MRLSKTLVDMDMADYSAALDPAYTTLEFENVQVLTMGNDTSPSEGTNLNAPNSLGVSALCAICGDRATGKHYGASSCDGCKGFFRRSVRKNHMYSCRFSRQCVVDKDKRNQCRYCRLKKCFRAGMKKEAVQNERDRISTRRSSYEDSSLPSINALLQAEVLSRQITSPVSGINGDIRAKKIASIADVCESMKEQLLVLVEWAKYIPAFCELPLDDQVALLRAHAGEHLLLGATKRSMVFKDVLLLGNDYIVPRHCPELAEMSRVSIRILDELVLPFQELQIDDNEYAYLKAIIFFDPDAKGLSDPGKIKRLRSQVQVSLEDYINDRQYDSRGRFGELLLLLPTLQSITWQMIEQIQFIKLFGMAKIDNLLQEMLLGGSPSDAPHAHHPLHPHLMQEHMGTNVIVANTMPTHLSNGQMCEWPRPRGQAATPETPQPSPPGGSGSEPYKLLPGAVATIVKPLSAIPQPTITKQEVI
Numbers without * were called inactive; ? = inconclusive; nt = no result given; & = joins results of further samples.

SMILES | LANA-H2A inh | B2AR ag | Calb FLC | Vif TR-FRET | ALR inh | RanGTP-Impb inh | HNF4A DNA FP
O=C(N/N=C/c1ccccc1)c1ccc2c(c1)OCO2 | -2.0 | -2 | -4 | nt | -2 | 6.0 | 4.4
COc1ccccc1CN1C(=O)CCC1(C)C(=O)NC1CCCCCC1 (stereo not given) | 0.4 | 13 | -4 | 2% | -9 | ? | 5.7
O=C(CC(CC(=O)c1ccccc1)c1ccccc1)c1ccccc1 | -0.1 | -7 | 6 | -8% | 1 | -1.9 | 2.1
CCOC(=O)N1CCN(C(=O)c2cn(CC)c3cc(N4CCN(C)CC4)c(F)cc3c2=O)CC1 | 8.5 | nt | 2 | 10% | -1 | -8.2 | nt
COC(=O)C1=C(N)OC2=C(C(=O)CC(C)(C)C2)C1c1cccnc1 (stereo not given) | -0.6 | 4 | 11 | -2% | 6 | -5.2 | -0.5
Cc1cc(C(C)(C)C)cc(C)c1N | 1.5 | 0 | 2 | nt | -3 | 0.4 | -2.7
N#Cc1cc2c(nc1SCC(=O)N1CCOCC1)CCCCC2 | 0.1 | 0 | 9 | 2% | 0 | 2.5 | 0.1
COc1ccc(/C=N/NC(=O)C(O)(c2ccccc2)c2ccccc2)cc1OC | 7.4 | -2 | -5 | 0% | -6 | 0.0 | -3.6
O=C(c1ccccn1)C1CCCN(Cc2cn[nH]c2-c2cc3ccccc3o2)C1 (stereo not given) | 5.1 | 4 | -24 | -6% | -6 | 4.2 | 5.3
CCOc1cc(/C=C2/C(=N)N3C(=NC2=O)SN=C3S(C)(=O)=O)ccc1OC(=O)c1ccco1 | -5.4 | 3 | 12 | nt | 60 | 0.7 | 34
O=C(O)CN1C(=O)/C(=C2\C(=O)N(Cc3ccccc3Cl)c3ccccc32)SC1=S | 4.2 | 1 | 5 | 10% | nt | -3.3 | 1.7
CCn1cc(Br)c(C(=O)Nc2ccccc2C(=O)OC)n1 | 0.0 | -7 | 10 | -1% | 3 | 1.6 | -0.6
Cc1cc(C)c2c(N)c(C(=O)Nc3ccc(C)c(C)c3)sc2n1 | -2.4 | -3 | 16 | nt | 3 | 0.8 | -6.1
CC(C)(C)c1ccc(C(=O)N/C(=C\c2cccs2)C(=O)N2CCOCC2)cc1 | 0.4 | 0 | 1 | nt | nt | ? | 1.9
COc1ccccc1C1CN=NC12CCCc1ccccc1C2=O (stereo not given) | 4.6 | 2 | 3 | 5% | -3 | 1.9 | 3.0
COc1ccc(S(=O)(=O)N2CCOCC2)cc1NC(=O)Cc1cccs1 | 2.0 | -6 | nt | nt | 1 | nt | 4.4
CC(C)c1cccc(C2=CC(=O)C[C@H](c3ccc4c(c3)OCO4)C2)c1 | -0.9 | -7 | nt | nt | 7 | nt | 5.2
O=C(NCc1nnc(SCC(=O)N2CCc3ccccc32)o1)c1ccco1 | 3.1 | 2 | 5 | 2% | -5 | -0.5 | -2.8
CC(C)C(C(=O)O)N1CCS(=O)(=O)CC1 (stereo not given) | -0.7 | 1 | -2 | 0% | -3 | 4.0 | 0.4
Cc1ccc(CNC(=O)C2=CCN(S(=O)(=O)c3ccc(C)cc3)CC2)cc1 | 4.6 | -5 | 1 | -6% | -12 | 0.5 | 4.3

As entered above:
Calb FLC, CC(C)(C)c1ccc(C(=O)N/C(=C\c2cccs2)C(=O)N2CCOCC2)cc1 stands at 1
HNF4A DNA FP, Cc1ccc(CNC(=O)C2=CCN(S(=O)(=O)c3ccc(C)cc3)CC2)cc1 stands at 4.3
B2AR ag, CC(C)c1cccc(C2=CC(=O)C[C@H](c3ccc4c(c3)OCO4)C2)c1 stands at -7

Retrieved by compound from above (4):
SMILES | LANA-H2A inh | B2AR ag | Calb FLC | Vif TR-FRET | ALR inh | RanGTP-Impb inh | HNF4A DNA FP
O=C(O)CN1C(=O)/C(=C2\C(=O)N(Cc3ccccc3Cl)c3ccccc32)SC1=S | 4.2 | 1 | 5 | 10% | nt | -3.3 | 1.7
Cc1ccc(CNC(=O)C2=CCN(S(=O)(=O)c3ccc(C)cc3)CC2)cc1 | 4.6 | -5 | 1 | -6% | -12 | 0.5 | 4.3
Cc1cc(C)c2c(N)c(C(=O)Nc3ccc(C)c(C)c3)sc2n1 | -2.4 | -3 | 16 | nt | 3 | 0.8 | -6.1
COc1ccc(S(=O)(=O)N2CCOCC2)cc1NC(=O)Cc1cccs1 | 2.0 | -6 | nt | nt | 1 | nt | 4.4

(more compounds)
SMILES | LANA-H2A inh | B2AR ag | Calb FLC | Vif TR-FRET | ALR inh | RanGTP-Impb inh | HNF4A DNA FP
Cc1ccc(N2CCN(C(=O)c3cc(-c4ccc(F)cc4)[nH]c3C)CC2C)cc1 (stereo not given) | -2.0 | -8 | 6 | 0% | 8 | -0.6 | 3.4
COC(=O)c1c(C)oc2ccc(N(C(=O)Oc3ccccc3)S(=O)(=O)c3ccc(Cl)c([N+](=O)[O-])c3)cc12 | 1.4 | 60* | -12 | 33% | -3 | ? | -4.0
CC1CN(C(=S)SCC(=O)c2ccc([N+](=O)[O-])cc2)CC(C)O1 (stereo not given) | 7.8 | -4 | 7 | nt | 48 | -0.1 | -1.0
O=C(NCc1ccccc1)C12CC3CC(CC(Br)(C3)C1)C2 | 1.7 | 0 | 9 | nt | -3 | -2.4 | -1.4
c1ccc2[nH]c(SCc3ccc(-c4nnco4)cc3)nc2c1 | -1.7 | -20 | -1 | 0% | -5 | ? | -1.1
CCN(CC)S(=O)(=O)c1ccc(C(=O)OCC(=O)NC2CCCC2)cc1 | -3.5 | -8 | -18 | -6% | nt | -0.1 | -0.2
CCn1cc(CN2CCCC(C(=O)Nc3cccc(-c4cc5ccccc5[nH]4)c3)C2)c(C)n1 (stereo not given) | 0.6 | 27 | -7 | nt | 20 | 0.8 | -0.3
CCCN1CCC(NC(=O)Cc2cccc(C)c2)CC1 | 4.4 | -2 | 0 | 4% | -4 | -4.0 | 0.6
COc1ccc(CNc2oc(COc3ccccc3Cl)nc2C#N)cc1 | -2.1 | 0 | 21 | 3% | -2 | -2.4 | 1.7
CC1(C)CC(NC(=S)Nc2ccc(S(N)(=O)=O)cc2)CC(C)(C)N1 | -4.0 | 0 | -12 | -2% | 2 | 4.2 | 2.1
COc1ccc(CCNC(=O)C(C)Sc2ccccc2)cc1OC (stereo not given) | -3.0 | -1 | 3 | 0% | -1 | 3.3 | -3.4
CC[C@H](C)[C@H]1CNC(=O)C(=O)N1CC1CCN(CCc2ccccc2)CC1 | nt | -6 | nt | -1% | nt | nt | -5.6
O=C(CN1C(=O)c2cccc3cccc(c23)C1=O)NCCN1CCOCC1 | 3.2 | 0 | 8 | ? | -6 | 4.4 | 4.2
CCCN1CC=C2C(C#N)=C(N)C(C#N)(C#N)C(c3cccc(OC)c3OC)C2C1 (stereo not given) | 17* | 1 | -2 | 10% | 15 | 104* | -52
Cc1ccccc1Nc1nc(N)nc(CN(C)Cc2ccccc2Cl)n1 | -6.0 | -9 | -48 | 6% | -20 | ? | 5.5
COc1ccc(C=NNc2nc3c([nH]2)c(=O)n(C)c(=O)n3C)cc1 | nt | 7 | nt | 2% | nt | nt | 0.9
Cc1cc(NC(=O)C(C)Oc2ccccc2)no1 (stereo not given) | -2.7 | 1 | 3 | nt | -8 | -3.3 | -0.9
CC1CCN(CC2C(=O)O[C@@H]3C[C@@]4(C)CCC[C@H](C)C4=C[C@H]23)CC(C)(C)C1 (stereo not given in full) | 0.8 | 24 | -12 | -11% | -12 | 0.9 | -2.1
Cc1ccccc1-n1c(SCC(=O)c2c(N)n(C3CC3)c(=O)[nH]c2=O)nnc1N1CCOCC1 | 7.1 | -4 | nt | -10% | 0 | nt | 0.6
COCCNc1ccc(S(=O)(=O)N2CCCC2)cc1[N+](=O)[O-] | 0.4 | 14 | 23 | nt | -5 | 3.3 | -0.6
Cc1c(C(=O)N2CC(C)OC(C)C2)sc2nc(-c3ccc(F)cc3)cn12 (stereo not given) | -2.0 | 1 | ? | 13% | -8 | -0.5 | 0.3
O=C(Cn1c(=O)n(Cc2ccccc2)c(=O)c2cc(Cl)ccc21)NCC1CCCO1 (stereo not given) | 0.4 | 0 | 12 | nt | 6 | 6.0 | 3.1
Cc1ccc(OCCCCNC2CCCCC2)c(C)c1 | 6.5 | -4 | -48 | 5% | -18 | -0.1 | 3.4
CCN(Cc1cccc(F)c1)C(=O)c1ccc2ccccc2n1 | 2.2 | 11 | 0 | nt | nt | -1.8 | -4.2
COc1cc(/C=C(\NC(C)=O)C(=O)Nc2ccccc2C)ccc1OC(C)=O | 7.8 | 8 | -8 | nt | 31 | -3.4 | -0.2
O=C(CSc1nc2ccccc2c(=O)n1NC(=O)Cc1ccccc1)NCc1ccccc1Cl | -5.1 | -1 | -9 | 0% | 2 | 2.5 | -0.7
CCc1cccc(CC)c1NC(=O)NC1CCCCC1 | -1.2 | -2 | -10 | -2% | -3 | 1.1 | 1.1
CCn1c2ccccc2c2cc(NC(=O)CSc3nnc(-c4ccccc4OC)n3N)ccc21 | -1.8 | 12 | -18 | 6%&-4% | -12 | -4.0 | 6.0
CC(=O)Oc1ccc(/C=C/c2nc3ccccc3c(=O)o2)cc1 | -4.9 | -9 | 8 | nt | 8 | -15 | 3.9
CC1CN(C(=O)Nc2ccc(F)cc2F)CC(C)O1 (stereo not given) | 3.4 | -2 | 4 | nt | -3 | -4.4 | -0.8

Reformatted in markdown: entries from further up
| mol | LANA-H2A inh | B2AR ag | Calb FLC | Vif TR-FRET | ALR inh | RanGTP-Impb inh | HNF4A DNA FP |
| --- | --- | --- | --- | --- | --- | --- | --- |
| COc1ccccc1C1CN=NC12CCCc1ccccc1C2=O (stereo not given) | 4.6 | 2 | 3 | 5% | -3 | 1.9 | 3.0 |
| Cc1ccc(CNC(=O)C2=CCN(S(=O)(=O)c3ccc(C)cc3)CC2)cc1 | 4.6 | -5 | 1 | -6% | -12 | 0.5 | 4.3 |

Next structures follow:
SMILES | LANA-H2A inh | B2AR ag | Calb FLC | Vif TR-FRET | ALR inh | RanGTP-Impb inh | HNF4A DNA FP
CCOC(=O)c1cn(CC)c2cc(N3CCCCC3)c(F)cc2c1=O | -0.8 | 1 | 15 | nt | -1 | 4.6 | -0.1
COc1ccc(-n2c(SCC(=O)Nc3sc4c(c3C#N)CCCC4)nnc2-c2ccc(O)cc2)cc1 | -1.5 | -3 | 1 | -1%&-2% | -11 | ? | 5.7
COc1ccc(C(=O)Nc2ccc(N3CCCCCC3)cc2)cc1S(=O)(=O)N1CCOCC1 | -2.1 | 16 | nt | 5% | 98* | nt | -2.0
CCC(=O)OCCn1c(Br)nc2c1c(=O)[nH]c(=O)n2C | -0.2 | 2 | 4 | 22% | 14 | -1.2 | 1.3
CCC(CO)Nc1nc2ccc(Cl)cc2c2ccccc12 (stereo not given) | 2.9 | 25 | 36 | -12% | -9 | -0.5 | -0.3
O=C(C[C@H]1C(=O)N(Cc2ccccc2)C[C@@H]1Cc1ccccc1)Nc1ccccc1 | 4.6 | -3 | 8 | nt | 2 | -2.2 | -1.5
C[C@@H]1CN([C@H](C)CO)C(=O)Cc2cc(NC(=O)Cn3cnnn3)ccc2O[C@@H]1CN(C)Cc1ccc(Cl)c(Cl)c1 | -6.3 | 7 | nt | nt | 0 | nt | 0.0
Cc1[nH]c(-c2ccc(F)cc2)cc1C(=O)N1CCN(c2ccc(Cl)cc2)CC1 | 0.5 | -2 | 1 | 4% | 7 | -2.3 | 2.4
N#Cc1ccc(OCC(=O)N2CCCC2=O)cc1 | -2.3 | -5 | nt | nt | 1 | nt | 2.8
Cc1ccc(S(=O)(=O)CCC(=O)OCC(=O)NCCc2ccc(F)cc2)cc1 | 2.0 | 3 | 2 | nt | 11 | nt | -4.4
CCC(=O)Nc1ccc(NC(=O)c2cc3ccccc3o2)c(OC)c1 | -3.3 | 8 | 10 | 3% | -4 | 2.3 | -1.3
